A1 inh – inhibitors of A1 | MEF A1-2A-BIM cells, caspase-Glo luminescence, 3 h; percent of clofoctol signal, DMSO as zero | 21,000 tested, 0.51% active | AID 2241 | caspase activation, % (test concentration not listed);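 active = most replicate scores above 10, or exactly half above 10 with mean activity above 10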;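 also: effector caspase 3 and 7 activity cleaving a DEVD luciferin substrate; 50 nL library stock added to about 30 µL; numbers are from one replicate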
BJeLR viability – compounds reducing viability of BJeLR cells | viability loss activity score, % (concentration not given with the values) | 30,000 tested, 0.64% active | BJeLR fibroblasts viability, CellTiterGlo ATP luminescence, 48 h; HRASV12, hTERT and SV40 LT/ST transformed; in the data active = viability loss activity score above about 50%; about a fifth of its hits are not listed in these tables;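 also: higher score means fewer live cells and less ATP luminescence; stock transfer was 50 or 100 nL into about 30 µL; 0% = vehicle wells and 100% = a reference killing control; one replicate is shown; the record names a cut of 85%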
Active calls of the source: *; · = no result given.

SMILES | A1 inh | BJeLR viability
COc1cc(OCCN2CCOCC2)ccc1C1C(C#N)=C(N)Oc2nc(C(F)(F)F)[nH]c21 (centres undefined) | 0.2 | 11
C[C@@H]1CN([C@H](C)CO)C(=O)c2cc(NC(=O)C3CCCCC3)ccc2O[C@H]1CN(C)Cc1ccc(C(F)(F)F)cc1 | 0.0 | 0.3
CC1(C)Oc2ccc3ccc(=O)oc3c2C(/C=N/O)C1=O (centres undefined) | · | -1.4
CNC(=O)CN1C(=O)C2C3C=CC(C3)C2C1=O (centres undefined) | · | -0.1
COc1ccc(NC(=O)N(C)C[C@H]2Oc3ccc(NS(=O)(=O)c4ccc(OC)cc4)cc3C(=O)N([C@@H](C)CO)C[C@H]2C)cc1 | -1.1 | 1.0
Cc1noc(C)c1-c1nc(CSc2n[nH]c(=O)n2C2CC2)no1 | 0.2 | -4.2
Cc1noc(C)c1NC(=O)N(C)C[C@H]1Oc2ccc(NC(=O)c3ccncc3)cc2C(=O)N([C@@H](C)CO)C[C@@H]1C | 1.0 | -3.2
COc1ccc(S(=O)(=O)N(C)C[C@@H]2Oc3c(NS(=O)(=O)c4ccccc4)cccc3C(=O)N([C@@H](C)CO)C[C@H]2C)cc1 | · | -5.4
CCOC(=O)c1sc(=Nc2ccccc2)n(Cc2ccccc2)c1C | -0.2 | 1.8
COc1ccc(C2=Cc3ccccc3C(C)(C)O2)cc1 | 0.1 | 2.6
CC(=O)Oc1ccc2cc(-c3nc4c(s3)CCc3ccccc3-4)c(=O)oc2c1 | -1.7 | 9.1
O=C(NC(c1ccccc1)c1ccccc1)c1ccco1 | 0.1 | 0.6
CCc1ccc(NC(=O)Cn2c(=O)n(CCC(=O)NCc3ccccc3)c(=O)c3sccc32)cc1 | · | -3.6
O=C1OCc2cc3cccc(O[C@@H]4O[C@H](CO[C@@H]5OC[C@@H](O)[C@H](O)[C@H]5O)[C@@H](O)[C@H](O)[C@H]4O)c3c(O)c21 | -0.3 | -14
C[C@@H]1CN([C@H](C)CO)C(=O)c2cccc(NS(=O)(=O)c3cccs3)c2O[C@H]1CN(C)C(=O)Nc1ccccc1 | · | -4.1
CCOC(=O)c1ccc(NC(=O)CCc2c[nH]c3ccccc23)cc1 | -0.9 | -0.5
COc1ccc(NC(=O)Nc2cccc3c2O[C@H](CN(C)Cc2ccc(-c4ccccc4)cc2)[C@H](C)CN([C@@H](C)CO)C3=O)cc1 | · | 1.6
Cc1ccc(S(=O)(=O)NC(=O)NC2CCN(c3nccc(C(F)(F)F)n3)CC2)cc1 | · | 2.3
COc1ccc(S(=O)(=O)Nc2cccc3c2O[C@@H](CN(C)S(=O)(=O)c2ccc(OC)cc2)[C@@H](C)CN([C@@H](C)CO)C3=O)cc1 | · | -1.8
C[C@@H]1CN([C@@H](C)CO)C(=O)c2cc(NC(=O)Cn3cnnn3)ccc2O[C@@H]1CN(C)Cc1ccncc1 | -0.3 | -2.8
CC1OC(OC2C(C(=O)O)OC(O[C@H]3CC[C@@]4(C)C(CC[C@]5(C)C4CC=C4C6CC(C)(C)CC[C@]6(C(=O)OC6OC(CO)C(O)C(O)C6O)CC[C@]45C)C3(C)C)C(O)C2O)C(OC2OCC(O)C(O)C2O)C(O)C1O (some centres undefined) | 0.0 | -1.9
O=S1(=O)CC(O)C(NCc2ccco2)C1 (centres undefined) | 0.0 | -0.9
COc1ccc(NC(=O)Nc2cccc3c2O[C@@H](CN(C)Cc2ccncc2)[C@H](C)CN([C@H](C)CO)C3=O)cc1 | · | 7.5
CC(C)OC(=O)Nc1cc(Cl)cc(Cl)c1 | -3.2 | -8.6
C[C@H](CO)N1C[C@H](C)[C@H](CN(C)Cc2ccc(C(F)(F)F)cc2)Oc2ccc(NC(=O)NC3CCCCC3)cc2C1=O | -1.4 | 0.1
C[C@H]1CN([C@@H](C)CO)C(=O)c2cc(NC(=O)c3ccncc3)ccc2O[C@@H]1CN(C)S(=O)(=O)c1cn(C)cn1 | -0.6 | 1.1
CCCSc1nc2c([nH]c3ccccc32)c(=O)n1-c1cc(C)cc(C)c1 | · | -0.9
NS(=O)(=O)c1ccc(Cl)cc1Sc1ccccc1C(=O)O | 0.1 | -2.9
CC1CN(c2ccc(NC(=O)c3ccco3)cc2C(=O)O)CC(C)O1 (centres undefined) | -0.1 | 0.0
Cc1noc(C)c1NC(=O)Nc1ccc2c(c1)C(=O)N([C@H](C)CO)C[C@@H](C)[C@@H](CN(C)S(C)(=O)=O)O2 | 0.1 | 0.9
CCc1ccc(NC(=O)CSc2c3c(nc4ccccc24)CCCC3)cc1 | · | -3.1
C[C@@H]1CN([C@@H](C)CO)C(=O)c2cccc(NS(=O)(=O)c3ccccc3)c2O[C@H]1CN(C)Cc1ccc(C(F)(F)F)cc1 | · | 13
COC(=O)c1cc2ccsc2n1CC(=O)N1CCCc2ccccc21 | 0.5 | 3.9
C[C@H]1CN([C@@H](C)CO)C(=O)c2cc(NC(=O)Cn3cnnn3)ccc2O[C@H]1CN(C)Cc1ccc(Oc2ccccc2)cc1 | 1.3 | -3.2
COc1ccc(NC(=O)N(C)C[C@@H]2Oc3c(NS(=O)(=O)c4cn(C)cn4)cccc3C(=O)N([C@@H](C)CO)C[C@H]2C)cc1 | · | -1.1
C[C@@H]1CN([C@@H](C)CO)C(=O)c2cccc(NC(=O)c3ccncc3)c2O[C@@H]1CN(C)CC1CCCCC1 | · | 0.1
Cc1noc(C)c1NC(=O)Nc1ccc2c(c1)C(=O)N([C@H](C)CO)C[C@@H](C)[C@H](CN(C)S(=O)(=O)c1cn(C)cn1)O2 | -0.4 | -1.2
O=C(CCN1C(=O)c2ccccc2C1=O)N1CCN(c2cccc(Cl)c2)CC1 | 0.4 | -1.9
CCOC(=O)c1sc2nc3n(c(=O)c2c1C)CCCC3 | · | 8.4
CCc1ccc2[nH]c(C(=O)Nc3ccccc3C(C)CC)cc2c1 (centres undefined) | -0.3 | 3.2

Arranged by formula weight (ascending): seven of the compounds above.
SMILES | A1 inh | BJeLR viability
COc1ccc(C2=Cc3ccccc3C(C)(C)O2)cc1 | 0.1 | 2.6
CCOC(=O)c1ccc(NC(=O)CCc2c[nH]c3ccccc23)cc1 | -0.9 | -0.5
CCCSc1nc2c([nH]c3ccccc32)c(=O)n1-c1cc(C)cc(C)c1 | · | -0.9
CCc1ccc(NC(=O)Cn2c(=O)n(CCC(=O)NCc3ccccc3)c(=O)c3sccc32)cc1 | · | -3.6
COc1ccc(NC(=O)Nc2cccc3c2O[C@@H](CN(C)Cc2ccncc2)[C@H](C)CN([C@H](C)CO)C3=O)cc1 | · | 7.5
C[C@@H]1CN([C@H](C)CO)C(=O)c2cc(NC(=O)C3CCCCC3)ccc2O[C@H]1CN(C)Cc1ccc(C(F)(F)F)cc1 | 0.0 | 0.3
Cc1noc(C)c1NC(=O)Nc1ccc2c(c1)C(=O)N([C@H](C)CO)C[C@@H](C)[C@H](CN(C)S(=O)(=O)c1cn(C)cn1)O2 | -0.4 | -1.2

Following part.
SMILES | A1 inh | BJeLR viability
C[C@H](CO)N1C[C@H](C)[C@H](CN(C)C(=O)Nc2cccc3ccccc23)Oc2ccc(NC(=O)CCC(F)(F)F)cc2C1=O | -0.5 | 6.7
COc1ccc(OC)c(N(C)S(=O)(=O)c2cc(Br)cnc2N)c1 | 0.5 | -1.1
O=C(O)/C=C\C(=O)Nc1ccccc1SCC(O)Cn1ccc(C(F)(F)F)n1 (centres undefined) | 0.5 | -1.2
Cc1cc(C)n2nc(SCC(=O)NC(C)CCc3ccccc3)nc2n1 (centres undefined) | 0.8 | 0.2
Cc1noc(C)c1NC(=O)N(C)C[C@@H]1Oc2c(NC(=O)C3CC3)cccc2C(=O)N([C@@H](C)CO)C[C@H]1C | · | -3.3
C[C@H]1CN([C@@H](C)CO)C(=O)c2cccc(NC(=O)C3CC3)c2O[C@H]1CN(C)Cc1ccccc1 | · | -0.9
COc1ccc(S(=O)(=O)Nc2ccc3c(c2)C(=O)N([C@H](C)CO)C[C@@H](C)[C@@H](CN(C)Cc2ccccc2)O3)cc1 | -0.6 | -1.3
COc1ccc(N2Cc3ccccc3C3(CCOCC3)C2=N)cc1 | 0.7 | 2.2
C[C@H](CO)N1C[C@H](C)[C@H](CN(C)Cc2ccc(-c3ccccc3)cc2)Oc2ccc(NC(=O)Cc3cn(C)c4ccccc34)cc2C1=O | 1.1 | 11
Cc1ccc(C(=O)CSC#N)o1 | 1.6 | 6.6
O=C1N(Cc2cc(=O)n3ccccc3n2)c2ccccc2S(=O)(=O)N1c1ccc(Cl)cc1 | 0.3 | 11
CC(C)NC(=O)Nc1ccc2c(c1)C(=O)N([C@H](C)CO)C[C@H](C)[C@@H](CN(C)Cc1ccc3c(c1)OCO3)O2 | 0.4 | -4.5
CCOC(=O)c1cc(C)nc(N2CCC(C(N)=O)CC2)c1C#N | 0.2 | -5.9
CCOC(=O)Cn1cc(/C=C2\C(=O)NC(=O)N(c3ccc(F)cc3)C2=O)c2ccccc21 | 0.4 | 3.3
c1ccc(Nc2nc3ccccc3n3cnnc23)cc1 | · | -2.5
Cc1ccc(-n2c(SCC(N)=O)nc3ccccc3c2=O)cc1 | 0.9 | -3.1
CC(C)(C)c1cc(C(C)(C)C)n(-c2ccc(-n3cccc3)cc2)n1 | -0.2 | 1.5
COc1ccc(S(=O)(=O)N(C)C[C@H]2Oc3c(NS(=O)(=O)c4ccc(C)cc4)cccc3C(=O)N([C@@H](C)CO)C[C@@H]2C)cc1 | · | -2.1
Nc1ccccc1SCc1cccc(Cl)c1F | -2.2 | 1.8
COc1ccc(CC(=O)Nc2ccc(N3CCOCC3)cc2)cc1OC | 1.7 | 9.7
C[C@H]1CN([C@@H](C)CO)C(=O)c2cc(NS(=O)(=O)c3cccs3)ccc2O[C@@H]1CN(C)C(=O)Nc1cccc2ccccc12 | -0.3 | -14
CCC(CC)NC(=O)C(C)Oc1ccccc1 (centres undefined) | 0.8 | 9.4
C[C@H](CO)N1C[C@H](C)[C@H](CN(C)CC2CC2)Oc2c(NC(=O)c3ccc(-c4nccs4)cc3)cccc2C1=O | · | 4.1
C[C@@H]1CN([C@@H](C)CO)C(=O)c2cc(NC(=O)CCCCCC(=O)Nc3ccccc3N)ccc2O[C@H]1CN(C)C(=O)Nc1ccccc1 | · | -9.9
Cc1c(C)c(C)c(CN2C(=O)c3ccccc3C2=O)c(C)c1C | 1.6 | 4.4
CC(=O)NC1CC(C)(C)N(OC(=O)c2ccccn2)C(C)(C)C1 | 0.3 | 5.5
Cc1ccc(-c2nsc(SCC(N)=O)n2)cc1 | -2.6 | 0.4
C[C@@H]1CN([C@H](C)CO)C(=O)c2cc(NC(=O)Nc3ccc(F)cc3)ccc2O[C@@H]1CN(C)C(=O)Nc1cccc2ccccc12 | -0.6 | 1.0
CNC[C@@H]1Oc2ccc(NC(=O)C3CCCCC3)cc2C(=O)N([C@H](C)CO)C[C@H]1C | -1.2 | -2.0
C[C@H]1CN([C@@H](C)CO)C(=O)c2cccc(NC(=O)c3cnccn3)c2O[C@H]1CN(C)Cc1ccncc1 | · | -2.7
CC(C)Cn1c(SCc2ccccc2)nnc1-c1ccncc1 | 0.7 | 0.2
C[C@H](CO)N1C[C@H](C)[C@@H](CN(C)C(=O)Nc2ccc(F)cc2)Oc2c(NS(=O)(=O)c3ccc(F)cc3)cccc2C1=O | · | -0.2
O=C(CSc1nnc2n1CCCN2)c1ccccc1 | 0.3 | 5.7
Cc1ccc(S(=O)(=O)N(C)C[C@H]2Oc3ccc(NS(=O)(=O)c4c(C)noc4C)cc3C(=O)N([C@@H](C)CO)C[C@@H]2C)cc1 | -0.1 | 3.9
C[C@@H]1CN([C@H](C)CO)C(=O)c2cc(NC(=O)CCCN(C)C)ccc2O[C@H]1CN(C)Cc1ccc(C(F)(F)F)cc1 | -0.1 | 5.3
CCc1ccc(N2CC34C=CC(O3)C(C(=O)OC)C4C2=O)cc1 (centres undefined) | · | -1.6
O=C(/C=C/Oc1ccc(Cl)cc1)c1ccc(Br)cc1 | 11* | 8.1
C=C(C(=O)O)[C@@H]1CC[C@@]2(C)CCC[C@@](C)(O)[C@@H]2C1 | 0.0 | 2.4
CC(C(=O)O)c1ccc(N2Cc3ccccc3C2=O)cc1 (centres undefined) | -6.0 | 6.7
CC(C)CCNC(=O)Cn1nc(-c2ccccc2)ccc1=O | 0.7 | -1.7
COc1ccc(NC(=O)Nc2ccc3c(c2)C(=O)N([C@@H](C)CO)C[C@H](C)[C@H](CN(C)C(=O)Nc2c(C)noc2C)O3)cc1 | -0.3 | -0.9
CC1CCCC(n2cnc3cc(C(=O)O)ccc32)C1C (centres undefined) | 0.1 | -6.4
CC(C)CC(C(=O)Oc1ccc2c3c(c(=O)oc2c1)CCC3)N1C(=O)c2ccccc2C1=O (centres undefined) | -1.2 | -2.4
COc1cc(C)nc2nc(S(C)(=O)=O)nn12 | 0.0 | -2.4
CC(=O)O[C@@H]1CC(C)=C2[C@H]1[C@H](C)CC[C@H]2/C=C(\C)C(=O)O | 0.4 | -0.9
O=C(CCc1nc2cccnc2n1-c1ccccc1)NCCc1ccccc1 | · | 3.7
Cc1ccc(S(=O)(=O)Nc2ccccc2Oc2ccccc2)cc1 | -0.2 | 1.8

Assay outcomes as filed in PubChem BioAssay.

A portion of the library (hit frequency here may not be typical).
